Screening results: PubChem BioAssay, several laboratories
HSV replic up = HSV replication enhancement | maximum fold increase | hit rate 0.005% among 220,000 | HSV replication augmentation in cells, fold increase;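 active means peak rise of 1.5-fold or more in the series; tested in PC3 cells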;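 further: first round at 10 µM; read as green reporter fluorescence; hits show the peak of a series up to 25 µM; 1 = signal of infected wells without compound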
RGS16-Gao HTS = regulators of human RGS16-Galphao interaction; AID 1441; hit rate 0.38% among 220,000; binding response (% of control), % at 10 µM; O15492+P09471; bead-based flow cytometry RGS16-Galphao binding, fluorescence; actives lie on both sides;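 active means below 25% or above 175%, edge rows of some plates excepted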;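 further: Galphao activated by GDP with aluminum fluoride before binding; 100% = wells without compound and 0% = beads without RGS; some results beyond the cut were filed as inactive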
Target sequence (O15492 whole entry, looked up): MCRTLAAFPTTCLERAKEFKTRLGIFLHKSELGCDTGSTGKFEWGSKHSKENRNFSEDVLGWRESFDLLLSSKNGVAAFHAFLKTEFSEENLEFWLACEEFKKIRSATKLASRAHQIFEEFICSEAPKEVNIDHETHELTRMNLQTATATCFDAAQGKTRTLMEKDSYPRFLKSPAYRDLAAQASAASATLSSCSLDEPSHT
Target sequence (P09471 whole entry, looked up): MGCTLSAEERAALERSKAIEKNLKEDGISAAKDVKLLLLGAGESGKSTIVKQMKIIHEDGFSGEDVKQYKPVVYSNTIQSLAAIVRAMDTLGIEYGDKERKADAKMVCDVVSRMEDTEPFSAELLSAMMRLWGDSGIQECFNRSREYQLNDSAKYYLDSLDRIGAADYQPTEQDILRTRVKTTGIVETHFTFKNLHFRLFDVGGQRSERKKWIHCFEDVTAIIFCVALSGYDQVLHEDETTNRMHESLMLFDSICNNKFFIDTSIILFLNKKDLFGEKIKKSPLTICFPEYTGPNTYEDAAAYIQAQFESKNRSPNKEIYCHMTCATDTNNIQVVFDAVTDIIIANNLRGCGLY
HSV replic up primary fold = recorded beside HSV replic up, whose call it bears; fold increase; compound at 10 µM; measured here: primary screen fold increase 10 uM; tested in PC3 cells;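 GFP signal in the first replicate; 1 = infected wells without compound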
Starred values were filed as active, the others as inactive; i = inactive; nt = not tested or not shown. This is a subset. The share of hits here may be higher or lower than overall.

SMILES	HSV replic up	HSV replic up primary fold	RGS16-Gao HTS
Cn1c(=O)c2c(ncn2CCO)n(C)c1=O	nt	nt	99.4
NC(=NCc1ccccc1)NC(=O)c1nc(Cl)c(N)nc1N	i	0.75	nt
COc1ccc(CN2CCN(C(c3ccc(F)cc3)c3ccc(F)cc3)CC2)c(OC)c1OC	i	0.81	nt
O=C(O)/C=C/c1ccc(O)cc1	i	1.04	nt
CCC(=O)O[C@]1(C(=O)SCF)[C@H](C)C[C@H]2[C@@H]3C[C@H](F)C4=CC(=O)C=C[C@]4(C)[C@@]3(F)[C@@H](O)C[C@@]21C	i	0.73	nt
CCc1c2c(nc3ccc(OC(=O)N4CCC(N5CCCCC5)CC4)cc13)-c1cc3c(c(=O)n1C2)COC(=O)[C@]3(O)CC	i	0.51	nt
Nc1ncnc2nc[nH]c12	i	0.94	nt
COC(=O)C1=CO[C@@H](OC2OC(CO)C(O)C(O)C2O)[C@@H]2[C@@H](C)[C@@H](O)C[C@H]12 (stereo not given in full)	i	1.02	nt

2 entries drawn at random from the list so far:
SMILES	HSV replic up	HSV replic up primary fold	RGS16-Gao HTS
NC(=NCc1ccccc1)NC(=O)c1nc(Cl)c(N)nc1N	i	0.75	nt
O=C(O)/C=C/c1ccc(O)cc1	i	1.04	nt

An excerpt from the list above, for reference:
SMILES	HSV replic up	HSV replic up primary fold	RGS16-Gao HTS
Cn1c(=O)c2c(ncn2CCO)n(C)c1=O	nt	nt	99.4
NC(=NCc1ccccc1)NC(=O)c1nc(Cl)c(N)nc1N	i	0.75	nt
COc1ccc(CN2CCN(C(c3ccc(F)cc3)c3ccc(F)cc3)CC2)c(OC)c1OC	i	0.81	nt
O=C(O)/C=C/c1ccc(O)cc1	i	1.04	nt
